# Menin MLL FP FL – displaces fluorescein MLL peptide from human menin. Fluorescence polarization, fluorescein-MLL peptide displacement from menin. FP activity change, % at 61.4 µM. 290,000 tested, under 10 active. AID 1766; inconclusive = falling polarisation curve, or a change in total fluorescence; inactive = total fluorescence flat and polarisation flat or rising; no compound was filed as active; the % refers to the polarisation; negative = inhibition;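 further: % of control where 0% means no effect; inhibitors lower the polarisation; unlabelled MLL peptide was the positive control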
# ClpP mod – qHTS Assay for Activators of ClpP; ATP-dependent Clp protease proteolytic subunit (Bacillus subtilis (strain 168)), P80244; 340,000 compounds, 1.9% hits; Potency, µM (top dose mostly 57.5 µM), for the others: top-dose activity change, negative = active; AID 651965, 2013; purified B. subtilis ClpP, FRET peptide cleavage, 20 min; active = well fitted falling curve with a large enough effect; inconclusive = small, poorly fitted or top-dose-only effect; inactive = no such curve, though single readings can be large or run the other way; further: potency means the concentration at half of the fitted maximal effect; the source files actives as falling curves though it sought activators and does not explain the sign; nearly all actives have a fitted effect of over 65% in size; many hits overshoot -100%
# Target sequence (P80244 whole entry, looked up): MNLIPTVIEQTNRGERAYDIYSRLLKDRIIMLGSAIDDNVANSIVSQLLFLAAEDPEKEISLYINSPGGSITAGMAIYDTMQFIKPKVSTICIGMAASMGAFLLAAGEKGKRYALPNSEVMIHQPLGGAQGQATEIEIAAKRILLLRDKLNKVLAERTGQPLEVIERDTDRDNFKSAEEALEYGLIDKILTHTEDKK
#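 Buffer: 100 mM Tris/HCl pH8, 100 mM KCl, 0.05% low protease BSA, 2.5% glycerol, 0.01% Tween-20. ClpP 10 microg/mL final; 20 min RT; delta FRET normalized to ADEP and DMSO controls.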
# gsp antag – gsp mutant antagonism; AID 624288; gsp-mutant cells, cAMP HTRF, 30 min; control for the full effect not named in the record; Potency, µM (titrated, usually from 76.9 µM), inactives show top-dose activity change, negative = inhibition, actives largely listed as inhibitors; 340,000 compounds, 0.4% hits; active = falling curve of any shape with a large fitted effect; inconclusive = falling curve, mostly with a smaller effect; inactive = flat or rising curve; cell line not stated here;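 further: intracellular cAMP measured with PDE inhibitor Ro 20-1724 present during compound exposure; potency means the concentration at half of the fitted maximal effect; on the % scale 0 is the no-effect control and ±100 the full control effect; nearly all actives have a fitted effect of over 65% in size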
#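 Cells, 2000/well, grown 16–24 h in DMEM 10% FBS with 0.5 mg/ml G418, then compounds plus […] (300 uM addition stock), 30 min at 37C. cAMP read by HTRF (cAMP-d2 and anti-cAMP antibody-K in lysis buffer) after 30 min RT.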
# TRPML1 inh – inhibitors of human TRPML1 channel. Q9GZU1. TRPML1-inducible cells, Ca2+ dye fluorescence, FDSS; active compounds read low; inhibition of EC80 agonist-evoked calcium signal. activity change, negative = inhibition, % (concentration not given with the values). 390,000 compounds, 0.02% hits. AID 624415; in the data active means activity change below about -50%; inconclusive means about -30% to -50%; inactive means above about -30%;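 further: stimulus is agonist 54-4 at its EC80 concentration; on the % scale 0 is the no-effect control and ±100 the full control effect; the text of the record puts the active cut at -80%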
# Target sequence (Q9GZU1 whole entry, looked up): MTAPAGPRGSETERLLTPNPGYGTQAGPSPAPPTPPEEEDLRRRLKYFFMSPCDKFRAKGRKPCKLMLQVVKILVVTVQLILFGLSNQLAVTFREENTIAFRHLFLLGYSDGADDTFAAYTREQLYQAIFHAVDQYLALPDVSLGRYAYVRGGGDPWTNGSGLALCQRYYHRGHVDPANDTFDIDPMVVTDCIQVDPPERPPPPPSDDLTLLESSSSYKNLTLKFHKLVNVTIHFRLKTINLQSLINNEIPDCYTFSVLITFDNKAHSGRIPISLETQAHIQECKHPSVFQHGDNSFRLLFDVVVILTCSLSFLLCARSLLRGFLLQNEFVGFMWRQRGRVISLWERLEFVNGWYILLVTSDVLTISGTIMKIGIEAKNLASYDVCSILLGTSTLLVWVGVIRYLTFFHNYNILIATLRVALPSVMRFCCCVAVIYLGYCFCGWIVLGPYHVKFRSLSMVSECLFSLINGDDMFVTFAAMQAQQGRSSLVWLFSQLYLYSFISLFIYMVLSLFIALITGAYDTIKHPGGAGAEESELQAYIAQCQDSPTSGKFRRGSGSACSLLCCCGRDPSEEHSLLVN
#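 TRPML1-DL cells, Tet-induced overnight (~16 h, 37 °C) at 1,500 cells/well, were loaded with Ca8 no-wash dye plus quencher for 45-90 min at room temperature. Compounds were pinned during FDSS kinetic reading; agonist 54-4 at EC80 (4 uM final) then added.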
# TRPML1 agonist – human mucolipin-1 channel agonism; AID 624414; activation, % (no concentration beside the values); Q9GZU1; TRPML1-expressing cells, Ca2+ dye fluorescence, FDSS; host cell line not named in the record; reference of the full effect not given here; 410,000 compounds, 0.12% hits; in the data active = activation above about 50%; inconclusive = about 30% to 50%; inactive = below about 30%; further: 0% is about no effect; the text of the record puts the active cut at 80%
#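 Calcium fluorescence on an FDSS kinetic reader gave the read-out. Tet-induced TRPML1-DL cells were plated overnight, dye-loaded (Ca8 with quencher, 45-90 min, room temperature, dark), then read 110 s after compound addition, and again 110 s after 4uM final 54-4 (EC80).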
# gsp ag – agonists of gsp mutant (McCune-Albright syndrome); gsp mutant cells, cAMP HTRF, 30 min; control for the full effect not named in the record; Potency, µM (doses to about 76.9 µM), for the others: at the top dose activation (cAMP increase), most hits filed as activators; 340,000 compounds, 0.13% hits; AID 624287; active = well fitted activation curve with a large enough effect; inconclusive = small, poorly fitted or top-dose-only effect, or another doubt; inactive = no such curve, though single readings can be large or run the other way; cell line not stated here;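 further: phosphodiesterase inhibitor Ro 20-1724 added with compounds to block cAMP breakdown; potency means the concentration at half of the fitted maximal effect; nearly all actives have a fitted effect of over 60% in size; about a fifth of the inactives were tested at one dose only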
#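 Cells stably selected in G418 were plated at 2000/well, grown 16-24 hr, then given compounds in DMSO with the PDE inhibitor […] (300 uM solution added) for 30 min at 37C; cAMP was read by HTRF.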
# Numbers without * were called inactive; ? = inconclusive; . = no result given; & = joins results of further samples; [ ] = remark or other dose.
SMILES,Menin MLL FP FL,ClpP mod,gsp antag,TRPML1 inh,TRPML1 agonist,gsp ag
O=C(CCc1c[nH]c2ccccc12)N1CCN(c2ccc(F)cc2)CC1,3.3,-0.2%,4%,5,-0.9,-13%[15.4 µM]
O=C(CN1CCN(C(=O)c2ccco2)CC1)N1CCc2[nH]c3ccccc3c2C1,?,.,-3%,9,-0.8,-40%
NC(=O)Cc1nc(-c2ccc(F)cc2)cs1,-0.4,0.3%,3%,25,-1.0,5%
COc1ccc(NC(=O)CSc2nc3c(c(=O)n(C)c(=O)n3C)n2C)c(OC)c1,-0.8,-2.2%,10%,-2,-1.4,0%[15.4 µM]
CN(C(=O)c1cccc(NC(=O)C2CCCN(C(=O)OC(C)(C)C)C2)c1)C1CCCC1 (configuration not stated),.,-0.4%,-2%,21,1.4,-43%[inhibitor]
CC(C)(C)c1ccc(/C=C(\C#N)C(=O)NC2CC2)cc1,.,.,3%,5,0.2,2%[15.4 µM]
CC(=O)c1c(C)[nH]c(C(=O)Nc2ccc(C)cc2Br)c1C,-5.1,.,24%,8,-0.4,11%[15.4 µM]
CCCOc1ccc(CSc2n[nH]c(C)n2)cc1,-0.2,.,4%,0,-0.3,-41%[inhibitor]
Cc1nn(-c2ccc(Cl)cc2)c(N)c1C(O)(CSc1nccn1C)C(F)(F)F (configuration not stated),-2.2,-6.8%,-9%,40,0.7,10%
COc1ccccc1CNC(=O)COC(=O)Cc1cccc(F)c1,.,0.5%,5%,8,-0.5,?
COCCn1c(SCC(=O)NC2CCCC2)nnc1C(C)C,0.1,-1.3%,-15%,23,-1.4,9%[15.4 µM]
CCc1ccc(C(=O)Nc2ccc3c(c2)n(C)c(=O)n3C)cc1,4.2,-1.8%,3%,13,0.4,0%[15.4 µM]
COc1ccc([C@@H]2Sc3cc(OC)ccc3N(CCN(C(C)C)C(C)C)C(=O)[C@H]2OC(C)=O)cc1,3.5,0.5%,1%,0,-0.3,-19%
Cc1ccc(-c2nnc(SCC(=O)N3CCCC3)o2)cc1C,-2.4,-3.4%,0%,12,2.2,-7%
CCOC(=O)C1CCCN(C(=O)c2[nH]c3ccc(OC)cc3c2C)C1 (configuration not stated),-0.6,3.7%,-3%,.,.,-10%
O=C(COc1ccc2ccccc2c1)NNC(=O)Nc1ccccc1F,.,-5.3%,-6%,14,-0.1,6%[15.4 µM]
CC1CCCCC1NC(=O)COc1ncnc2sccc12 (configuration not stated),.,-1.8%,7%,-1,0.1,19%
COc1ccc(-c2nc(CNC(=O)NC3CCCCC3)c(C)o2)cc1,.,-19%,.,-21,1.9,.
Cc1ccc(C2CC(=O)NC(SCC(N)=O)=C2C#N)s1 (configuration not stated),-3.3,-2.6%,4%,-17,0.7,-57%[inhibitor]
Cc1cc(-c2ccccc2)nc2oc(C(=O)NN)c(N)c12,2.7,.,-9%,4,0.6,?
CC1=C(C(=O)OCC(C)C)C(c2ccccc2Cl)NC(=O)N1C (configuration not stated),3.7,-2.2%,0%,3,2.0,9%
O=C1NC(=O)/C(=C/C(=O)N2CCOCC2)S1,-1.5,-1.2%,-1%,-7,0.3,7%
O=C(c1c(F)cccc1Cl)N(Cc1ccco1)C1CCS(=O)(=O)C1 (configuration not stated),.,-1.6%,.,12,-1.3,-104%[inhibitor]
CC1(C)CC(=O)C2=C(C1)OC(N)=C(C#N)C2c1cccs1 (configuration not stated),3.8,.,-13%,10,1.6,?
CC(=O)Nc1ccc(NC(=O)c2ncoc2-c2ccco2)cc1,.,-2.6%,.,-10,-0.3,.
CC(C)(C)c1nc(CN2CCOCC2)cc(CN2CCOCC2)c1O,-2.1,-0.1%,2%,-2,-0.4,8%
CCOc1ccc(NS(=O)(=O)c2ccc(NC(=O)C3CCCO3)cc2)cc1 (configuration not stated),-2.7,-1.7%,6%,-6,-0.2,-5%
CCOC(=O)c1nn(-c2sc(C(=O)OC)c(C)c2C(=O)OC)cc1O,1.3,-7.7%,4%,-12,1.1,-31%
Cc1ccc(NC(=O)c2ccc3[nH]c(C)cc(=O)c3c2)c(C)c1,.,-6.9%,.,-16,-0.5,.
O=C(CCCCn1c(=O)c2ccccc2n(Cc2ccc(F)cc2)c1=O)NCc1ccco1,1.1,-11%,4%,30,2.9,4%
CCOC(=O)c1ccc(NC(=O)CSc2ccc(-c3ccccn3)nn2)cc1,.,-1.4%&-7.7%,-8%,15&33,2.3&1.2,-4%[15.4 µM]
Cc1ccc(C)c(N2CC(C(=O)OCC(=O)Nc3cc(C)on3)CC2=O)c1 (configuration not stated),6.6,.,-4%,-5,-0.3,-12%
O=C(CC1SC(=NCc2ccccc2)NC1=O)Nc1ccccc1 (configuration not stated),0.0,.,-9%,-4,3.7,-1%[15.4 µM]
COC(=O)c1c(NS(=O)(=O)c2cccs2)sc2c1CCCC2,6.7,-1.0%,22µM*,0,1.6,-6%
CCOc1ccc2nc(Cl)c(C3CC(c4ccc(C)cc4)=NN3C(=O)CCCC(=O)O)cc2c1 (configuration not stated),.,-5.3%,.,-19,-0.1,.
CCC(C)C(NC(=O)c1ccc(Cl)cc1)C(=O)O (configuration not stated),5.1,-2.3%,1%,-8,-0.1,7%
Cc1c(CC(=O)NCCCC(=O)O)c(=O)oc2c(C)c3oc4c(c3cc12)CCCC4,2.5,-21%,-7%,34,0.1,2%
COC1=C(OC)C(=O)C(Sc2ccc3ccccc3c2)=CC1=O,.,-0.9%,-11%,11,-0.5,-3%
CCOC(=O)c1nc(C)sc1-c1ccnn1S(=O)(=O)c1cccc(Cl)c1,3.6,.,-8%,21,2.1,17%[15.4 µM]
Cc1ccc(-c2nc(SC(C)C(=O)N3CCOCC3)n[nH]2)cc1 (configuration not stated),.,-4.3%,0%,22,0.8,-2%
CCCCN(C)C(=S)Nc1ccsc1C(=O)OC,7.0,1.2%,-10%,42,1.2,1%
CCOc1cccc(-c2nnc3sc(COc4ccc(OC)cc4)nn23)c1,-3.1,-2.8%,2%,5,1.0,11%
COc1ccc(CCC(=O)Nc2cccc(S(=O)(=O)N3CCCCCC3)c2)cc1,.,.,-7%,25,3.0,-3%[15.4 µM]
COc1ccccc1NS(=O)(=O)c1cc(NC(=O)CCNC(C)=O)ccc1C,-3.1,0.9%,13%,-15,0.4,-1%[15.4 µM]
CCOc1ccc(N=C2SC(C(=O)O)CC(=O)N2C)cc1 (configuration not stated),0.5,6.2%,-16%,10,0.6,-1%
CC1(C)N(O)CC(c2cccs2)=[N+]1[O-],1.5,3.2%,-9%,28,2.5,-45%[inhibitor]
CCc1ccc(N2CC(C)Cn3c2nc2c3c(=O)[nH]c(=O)n2C)cc1 (configuration not stated),-3.2,.,-17%,-18,-0.3,8%[15.4 µM]
CCN(CC)CCCOC(=O)c1ccc(OC)cc1O,-5.6,.,9%,5,-0.2,22%[15.4 µM]
CC(=O)Nc1ncc2c(n1)CC(c1ccco1)CC2=O (configuration not stated),-0.1,4.9%,-6%,-2,-0.7,-21%
C=CCCCCCCCCc1nc(SCC(=O)O)n[nH]1,1.5,.,6%,8,-0.4,9%[15.4 µM]
C/C=C/COC(=O)C1=C(C)NC(=O)NC1c1ccc2c(c1)OCO2 (configuration not stated),-0.8,.,5%,-1,-0.2,-19%
CCCCOc1ccccc1C1CC(=O)NC2=C1C(=O)CCC2 (configuration not stated),-0.9,-1.5%,2%,3,11,-1%
CSc1nsc(SCC(=O)Nc2cc(C(=O)O)ccc2C)n1,-3.3,-0.1%,5%,19,0.1,2%
CCOC(=O)c1[nH]c2ccccc2c1NC(C)=O,19,?,5%,-11,-1.0,24%
CCOC(=O)C1(C)CCCN1C(=O)c1ccc(C(F)(F)F)nc1C (configuration not stated),.,0.8%,.,-9,0.0,.
Cc1ccc(NC(=O)CSc2cccc[n+]2[O-])c([N+](=O)[O-])c1,3.2,-2.4%,-3%,-2,-0.5,5%[15.4 µM]
CSc1ccc(CN(C)CC(=O)Nc2ccccc2Br)cc1,4.5,0.4%,-19%,6,0.4,-15%
CCOc1ccc(NC(=O)CC2C(=O)N(c3ccc(OC)cc3)C(=S)N2Cc2ccccn2)cc1 (configuration not stated),1.5,.,-28%,-1,-0.3,16%[15.4 µM]
Cc1ccsc1C1Nc2ccc3ncccc3c2C2=C1C(=O)CC(C)(C)C2 (configuration not stated),0.4,-23%,0%,33,1.1,-7%
Cc1ccc2nc(-c3ccc(NC(=O)CSCC(=O)O)cc3)sc2c1,-0.3,3.3%,-8%,13,0.8,?
# Next part.
SMILES,Menin MLL FP FL,ClpP mod,gsp antag,TRPML1 inh,TRPML1 agonist,gsp ag
CCCc1cc(=O)[nH]c(SCC(=O)N2CC3(C)CC2CC(C)(C)C3)n1 (configuration not stated),.,2.1%,-10%,-3,0.0,-80%[inhibitor]
COc1cc(C2NC(=O)NC(C)=C2C(=O)OC(C)C)ccc1OC(=O)c1ccco1 (configuration not stated),2.7,1.0%,-4%,-10,0.9,-45%[inhibitor]
Cc1nc2ccccn2c1C(=O)C(=O)Nc1cc(F)ccc1F,1.4,1.0%,-11%,11,0.0,2%[15.4 µM]
CCOc1ccc(/C=C/C(=O)N(CC)CC(=O)Nc2c(F)cccc2F)cc1OC,.,3.5%,.,6,-0.8,-29%
CN(Cc1ccc(OC(F)F)cc1)C(=O)c1ccc2c(=O)n3c(nc2c1)CCC3,.,.,4%,5,0.2,-4%[15.4 µM]
N[C@@H](Cc1cc(I)c(Oc2cc(I)c(O)c(I)c2)c(I)c1)C(=O)O,0.0,-0.7%,-6%,26,-0.5,.
O=C(NC1CCN(Cc2ccccc2)CC1)C1CCCN(S(=O)(=O)c2cccc3nonc23)C1 (configuration not stated),4.0,-3.3%,-1%,-10,3.7,-3%

# Source: PubChem
